Source: PubChem BioAssay (Broad Institute)
DUX4 txn inh = inhibitors of DUX4-driven ZSCAN4 reporter expression, primary screen, 293T cells, Gaussia and Italica luciferase. 293T-iDUX4 ZSCAN4-Gaussia luciferase reporter, 24 h; hits give low values. activity change, negative = inhibition, % (test concentration not listed). 37,000 tested, 0.8% active. AID 1224904, 2016;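 active = -10% or lower and over 25 points stronger than a control reporter; inconclusive = -10% or lower with a smaller gap; inactive = above -10%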;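 also: 0% = median of neutral control wells and -100% = median of positive control wells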
DUX4 txn inh difference = recorded beside DUX4 txn inh, whose call it bears; Gaussia minus Italica difference, %; measured here: selective DUX4 reporter inhibition;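 worked out from the two reporters; negative = selective loss of the DUX4 reporter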
DUX4 txn inh control = second read-out of DUX4 txn inh, no call of its own (marks repeat the call); activity change, negative = inhibition, %; measured here: Italica tet-on control reporter;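 0 = neutral control and -100 = positive control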
Active calls of the source: *; ? = inconclusive; · = no result given. The list is partial; the hit share may differ from the screen's.

SMILES | DUX4 txn inh | DUX4 txn inh difference | DUX4 txn inh control
CC=Cc1ccc2n(c1=O)C[C@@H]1[C@@H](CO)[C@H](C(=O)N[C@H](C)c3ccccc3)N(C(=O)c3ccccn3)[C@H]21 (mixture of isomers) | -4 | 3 | -6.7
COc1ccc(CNC(=O)C[C@H]2C[C@H]3c4cc(NC(=O)NC5CCCC5)ccc4O[C@H]3[C@H](CO)O2)cc1 | 6 | 1 | 5.1
CN1[C@H](C(=O)NCCc2ccccc2)[C@@H](CO)[C@@H]2Cn3c(cccc3=O)[C@@H]21 | -2 | -1 | -1.5
COCC(=O)N(C)C[C@H]1Oc2cc(C#CC(C)(C)O)ccc2S(=O)(=O)N([C@@H](C)CO)C[C@@H]1C | -2 | -4 | 1.2
O=C(Nc1cc(F)ccc1F)N1[C@@H]2CNC[C@H]1C2c1ccc(-c2cccnc2)cc1 (stereo partly drawn) | ? | 1 | 8.7
CN1C(=O)c2cc(NC(=O)C3CCCC3)ccc2OC[C@H]2O[C@@H](CC(=O)NCC(F)(F)F)CC[C@@H]21 | 5 | 2 | 3.3
COc1ccc(S(=O)(=O)N(C)C[C@H]2OCCCC[C@@H](C)Oc3ccc(NC(=O)Cc4ccccc4)cc3C(=O)N([C@@H](C)CO)C[C@H]2C)cc1 | 0 | -4 | 4.0
N#C[C@H]1[C@@H](c2ccc(C#Cc3ccccc3F)cc2)[C@H](CO)N1C(=O)C1CC1 | 5 | 1 | 4.1
C[C@H]1CN([C@@H](C)CO)C(=O)c2cc(C#Cc3ccncc3)cnc2O[C@@H]1CN(C)S(=O)(=O)c1ccccc1F | 1 | 2 | -1.0
C[C@H]1CCCCO[C@H](CN(C)Cc2ccc3c(c2)OCO3)[C@@H](C)CN([C@@H](C)CO)C(=O)c2cc(NS(=O)(=O)c3cn(C)cn3)ccc2O1 | 3 | 3 | -0.3
Cc1cccc(-c2ccc([C@H]3[C@H]4CN(CCC(F)(F)F)CCCCN4[C@H]3CO)cc2)c1 | -49* | -39* | -11*
O=C(NCC(F)(F)F)[C@H]1[C@H](CO)[C@H]2Cn3c(cccc3=O)[C@@H]1N2CC1CCOCC1 | -3 | -4 | 1.2
C[C@@H]1CCCCO[C@H](CN(C)C(=O)NC2CCCCC2)[C@H](C)CN([C@H](C)CO)C(=O)c2cc(N(C)C)ccc2O1 | -1 | -4 | 2.3
C[C@H]1CN([C@@H](C)CO)S(=O)(=O)c2ccc(C#CC3CCCCC3)cc2O[C@H]1CN(C)Cc1cccnc1 | -3 | -1 | -2.3
CN1c2ccc(-c3ccc(F)cc3)cc2[C@H]2[C@H](CCN2C(=O)Cc2ccccn2)[C@H]1CO | 4 | 2 | 1.7
CNC[C@@H]1Oc2c(N)cccc2C(=O)N([C@H](C)CO)C[C@@H]1C | 0 | 0 | -0.2
C[C@@H]1CCCCO[C@@H](CN(C)C(=O)Nc2ccc3c(c2)OCO3)[C@@H](C)CN([C@H](C)CO)C(=O)c2cc(NC(=O)CCCCCC(=O)Nc3ccccc3N)ccc2O1 | -2 | -2 | -0.4
CN1CCN(C(=O)c2cc3c(c(-c4cccc(-c5cccnc5)c4)n2)[C@H](CCO)N(C(=O)CC2CC2)C3)CC1 | 1 | -3 | 3.9
C[C@@H]1CCCCO[C@H](CN(C)CC2CC2)[C@H](C)CN([C@H](C)CO)C(=O)c2cc(NC(=O)c3ccccc3)ccc2O1 | -1 | -1 | 0.3
C[C@H](CO)N1C[C@H](C)[C@H](CN(C)CC2CCCCC2)OCCCC[C@H](C)Oc2ccc(NS(C)(=O)=O)cc2C1=O | 1 | 4 | -3.6
C[C@@H]1CN([C@H](C)CO)C(=O)c2c(c3ccccc3n2C)-c2ccccc2CO[C@@H]1CN(C)C(=O)[C@H](C)c1ccccc1 | ? | · | ·
N#C[C@H]1[C@@H](c2ccc(-c3ccccc3F)cc2)[C@@H](CO)N1C(=O)c1ccccn1 | 5 | 0 | 4.8
COc1cccc(NC(=O)N2C[C@@H](O)COC[C@@H]3O[C@H](CC(=O)N(C)C)CC[C@H]32)c1 | 4 | -4 | 8.2
C[C@H]1CN([C@@H](C)CO)C(=O)CCCn2cc(nn2)CO[C@@H]1CN(C)C(=O)Cc1ccccc1 | 4 | 3 | 0.6
CC(C)C[C@@H]1COCc2cn(nn2)CC[C@H](Cc2ccccc2)C(=O)N1 | 0 | 1 | -1.1
C[C@H](CO)N1C[C@H](C)[C@@H](CN(C)S(=O)(=O)c2cn(C)cn2)OCc2ccccc2-c2c(n(C)c3ccccc23)C1=O | ? | · | ·
CO[C@@H]1CC[C@H]2CCN(C)C(=O)[C@@H](C)[C@H](OC)CN(C)C(=O)c3cc(C#N)ccc3OC[C@@H]1O2 | 0 | -2 | 2.1
COCC(=O)NC[C@@H]1[C@@H](c2ccc(C3=CCCC3)cc2)[C@@H](CO)N1C(=O)C1CC1 | 3 | 3 | -0.4
CO[C@H]1CN(C)C(=O)c2ccc(NC(=O)C3CC3)cc2OC[C@@H](C)N(C(=O)c2cccnc2)C[C@@H]1C | 1 | 0 | 1.0
Cc1cc(C(=O)Nc2ccc3c(c2)C(=O)N(C)[C@@H]2CC[C@@H](CC(=O)NCc4ccc(-c5ccccc5)cc4)O[C@H]2CO3)no1 | 3 | 0 | 3.7
Cc1nn(C)cc1NC(=O)C[C@@H]1CC[C@H]2[C@@H](COc3ccc(NC(=O)C4CCOCC4)cc3C(=O)N2C)O1 | -6 | -3 | -2.7
CO[C@@H]1CN(C)C(=O)c2cc(NC(=O)Nc3cccc(F)c3)ccc2OC[C@@H](C)N(C(=O)C2CC2)C[C@@H]1C | -4 | -1 | -2.3
CO[C@@H](C(=O)N(C)C[C@H]1OCc2ccccc2-c2c(n(C)c3ccccc23)C(=O)N([C@@H](C)CO)C[C@@H]1C)c1ccccc1 | -10 | -1 | -9.3
C[C@H](C(=O)N(C)C[C@H]1OCc2ccccc2-c2ccccc2C(=O)N([C@@H](C)CO)C[C@H]1C)c1ccccc1 | -3 | -8 | 5.0
O=C(C[C@H]1C=C[C@H](NC(=O)c2ccc(F)cc2)[C@@H](CO)O1)NCCc1ccncc1 | 7 | 4 | 2.8
C[C@H]1CN([C@@H](C)CO)S(=O)(=O)c2ccc(C#CC3(O)CCCC3)cc2O[C@@H]1CN(C)C(=O)c1cccnc1 | -4 | -1 | -3.2
COc1ccc([C@H]2CC=CC[C@H](C)Oc3ccccc3C(=O)N(C)[C@@H](C)C(=O)N2)c(OC)c1 (mixture of isomers) | -1 | -1 | 0.1
CNC(=O)C[C@H]1CC[C@H]2[C@@H](COC[C@@H](O)CN2Cc2ccccc2F)O1 | 4 | 6 | -1.8
O=C(C1CC1)N1CCCCN2[C@H](C1)[C@H](c1ccc(-c3cccc(F)c3)cc1)[C@@H]2CO | 1 | 2 | -1.6
N#C[C@@H]1[C@H](c2ccc(-c3cccc(F)c3)cc2)[C@@H](CO)N1S(=O)(=O)c1cccc(F)c1 | 2 | -4 | 6.5
C[C@@H]1CN([C@H](C)CO)S(=O)(=O)c2ccc(C3=CCCCC3)cc2O[C@@H]1CN(C)C(=O)Cc1cccnc1 | 3 | 1 | 2.4
Cc1ccccc1-c1cnc2c(c1)C(=O)N([C@H](C)CO)C[C@@H](C)[C@@H](CN(C)Cc1ccccc1F)O2 | -1 | -2 | 0.9
C[C@@H]1CCCCO[C@H](CN(C)S(=O)(=O)c2cn(C)cn2)[C@@H](C)CN([C@H](C)CO)C(=O)c2cc(N(C)C)ccc2O1 | 2 | 4 | -2.0
CCCNC(=O)N1C[C@@H]2[C@H](c3ccccc31)[C@@H](CO)N2C(=O)c1ccccc1 | 1 | -3 | 3.4
O=C(Nc1cc(F)ccc1F)N[C@@H]1CC[C@H](CCn2cc(C3CCCCC3)nn2)O[C@H]1CO | -9 | 0 | -8.3

In a second layout: results already given
smiles	DUX4 txn inh	DUX4 txn inh difference	DUX4 txn inh control
Cc1nn(C)cc1NC(=O)C[C@@H]1CC[C@H]2[C@@H](COc3ccc(NC(=O)C4CCOCC4)cc3C(=O)N2C)O1	-6	-3	-2.7
CO[C@@H]1CN(C)C(=O)c2cc(NC(=O)Nc3cccc(F)c3)ccc2OC[C@@H](C)N(C(=O)C2CC2)C[C@@H]1C	-4	-1	-2.3
CO[C@@H](C(=O)N(C)C[C@H]1OCc2ccccc2-c2c(n(C)c3ccccc23)C(=O)N([C@@H](C)CO)C[C@@H]1C)c1ccccc1	-10	-1	-9.3
C[C@H](C(=O)N(C)C[C@H]1OCc2ccccc2-c2ccccc2C(=O)N([C@@H](C)CO)C[C@H]1C)c1ccccc1	-3	-8	5.0
O=C(C[C@H]1C=C[C@H](NC(=O)c2ccc(F)cc2)[C@@H](CO)O1)NCCc1ccncc1	7	4	2.8
C[C@H]1CN([C@@H](C)CO)S(=O)(=O)c2ccc(C#CC3(O)CCCC3)cc2O[C@@H]1CN(C)C(=O)c1cccnc1	-4	-1	-3.2
COc1ccc([C@H]2CC=CC[C@H](C)Oc3ccccc3C(=O)N(C)[C@@H](C)C(=O)N2)c(OC)c1 (mixture of isomers)	-1	-1	0.1
CNC(=O)C[C@H]1CC[C@H]2[C@@H](COC[C@@H](O)CN2Cc2ccccc2F)O1	4	6	-1.8
O=C(C1CC1)N1CCCCN2[C@H](C1)[C@H](c1ccc(-c3cccc(F)c3)cc1)[C@@H]2CO	1	2	-1.6

(more compounds)
SMILES | DUX4 txn inh | DUX4 txn inh difference | DUX4 txn inh control
COCC(=O)N(C)C[C@H]1[C@H](c2ccccc2)[C@@H](CO)N1C(=O)Cc1cccnc1 | 2 | 0 | 2.7
CO[C@H](CN(C)S(=O)(=O)c1ccc(F)cc1)[C@@H](C)CN(Cc1ccccc1Cl)[C@@H](C)CO | 0 | 4 | -4.8
CC=Cc1ccc2n(c1=O)C[C@@H]1[C@@H](CO)[C@H](C(=O)NCc3ccccc3)[C@H]2N1Cc1ccccc1OC (mixture of isomers) | -8 | -10 | 1.5
O=C(NCc1ccccc1)[C@@H]1[C@@H](CO)[C@@H]2Cn3c(cccc3=O)[C@H]1N2C(=O)Cc1ccccn1 | -2 | -4 | 1.4
O=C(C[C@H]1CC[C@@H](NC(=O)C2CCOCC2)[C@H](CO)O1)Nc1nccs1 | 1 | 1 | -0.5
CCC(=O)N1CCC2(CC1)CN(S(C)(=O)=O)[C@H](CO)c1[nH]c3cc(OC)ccc3c12 | 11 | 17 | -5.3
C[C@@H]1CN([C@@H](C)CO)C(=O)c2cc(-c3ccncc3)cnc2O[C@H]1CN(C)C(=O)CN1CCOCC1 | 1 | 5 | -4.3
COc1ccc(NC(=O)N2CCC3(CC2)CN(C(=O)CN2CCOCC2)[C@H](CO)c2[nH]c4cc(OC)ccc4c23)cc1 | 1 | -10 | 12
O=C(C[C@H]1C[C@H]2c3cc(NC(=O)C4CCOCC4)ccc3O[C@H]2[C@H](CO)O1)NCc1ccc(Oc2ccccc2)cc1 | ? | · | ·
CCCNC(=O)N1[C@@H]2c3cccc(=O)n3C[C@H]1[C@H](CO)[C@H]2C(=O)NCC(F)(F)F | -1 | -3 | 1.7
Cc1cccc(-c2ccc([C@@H]3[C@@H](CO)N4C(=O)CN(C(=O)Cc5ccccn5)C[C@@H]34)cc2)c1 | ? | · | ·
O=C(CC1CC1)Nc1ccc2c(c1)[C@@H]1C[C@@H](CC(=O)N3CCCCC3)O[C@@H](CO)[C@@H]1O2 | 4 | 1 | 3.4
CO[C@H](CN(C)Cc1ccc2c(c1)OCO2)[C@@H](C)CN(C(=O)c1ccccc1)[C@@H](C)CO | -4 | -1 | -2.8
C[C@H](CO)N1C[C@H](C)[C@@H](CN(C)C(=O)Nc2ccc3c(c2)OCO3)Oc2c(NS(=O)(=O)c3ccc(Cl)cc3)cccc2C1=O | 2 | 1 | 1.0
CCC(=O)N1CC[C@H]2[C@H](CO)Nc3ccc(-c4cccc(C#N)c4)cc3[C@H]21 | 8 | 0 | 8.0
C[C@H](CO)N1C[C@H](C)[C@@H](CN(C)C(=O)NC2CCCCC2)OCc2ccccc2-c2c(n(C)c3ccccc23)C1=O | ? | · | ·
CC=Cc1ccc2n(c1=O)C[C@@H]1[C@@H](CO)[C@H](C(=O)NCCN3CCCC3)N(C(=O)NCCC)[C@H]21 (mixture of isomers) | 16 | 3 | 14
O=C(Nc1cccc(F)c1)N1CCCCN2[C@@H](CO)[C@@H](c3ccc(C#CC4CC4)cc3)[C@@H]2C1 | ? | · | ·
COc1ccc(-c2ccc([C@@H]3[C@@H](C#N)N(C(=O)C4CCCCC4)[C@H]3CO)cc2)cc1 | 0 | 2 | -2.5
C[C@@H]1CN([C@@H](C)CO)C(=O)c2ccccc2-c2ccccc2CO[C@H]1CN(C)C(=O)Nc1cccc(C(F)(F)F)c1 | ? | · | ·
COc1ccc(-c2ccc([C@H]3[C@H](CO)N4CCCCN(CC5CCOCC5)C[C@@H]34)cc2)cc1 | 8 | 12 | -4.0
COC(=O)[C@H]1[C@H](CO)[C@H]2Cn3c(ccc(-c4ccccc4)c3=O)[C@H]2N1Cc1cccc(F)c1 | 1 | 10 | -9.4
CC(C)(C)S(=O)N1Cc2cc(C(=O)NCc3ccc4c(c3)OCO4)nc(-c3cccc(-c4cc5ccccc5o4)c3)c2[C@H]1CCO (stereo partly drawn) | 0 | 1 | -0.9
C/C=C/c1cnc2c(c1)C(=O)N([C@H](C)CO)C[C@@H](C)[C@@H](CN(C)C(=O)c1cnccn1)O2 | 3 | 3 | -0.4
CCCNC(=O)Nc1ccc2c(c1)OC[C@H](C)N(C(=O)c1ccccc1F)C[C@H](C)[C@H](OC)CN(C)C2=O | 13 | 7 | 5.5
N#C[C@H]1[C@@H](c2ccccc2-c2ccccc2)[C@@H](CO)N1C(=O)Cc1cccnc1 | 0 | -9 | 8.9
CCCC#Cc1ccc([C@@H]2[C@H]3CN(C(=O)Nc4ccccc4)CC(=O)N3[C@H]2CO)cc1 | 4 | 2 | 2.9
